Screening data from PubChem BioAssay.
EPAC1 agonist: Validation qHTS for agonist of cAMP-regulated guanine nucleotide exchange factor 3 (EPAC1) | Rap guanine nucleotide exchange factor 3 (Homo sapiens), O95398 | EPAC1 Rap1b BODIPY-GDP exchange, fluorescence | Potency, µM, for the others: max response, positive = active, usual class: activators | 16,000 compounds, 1% hits; active = well fitted activation curve with a large enough effect; inconclusive = small, poorly fitted or top-dose-only effect; inactive = no such curve, though single readings can be large or run the other way;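 also: nearly all actives have a fitted effect of over 70% in size; series mostly up to about 76 or 150 µM; scaled to a cAMP control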
Target sequence (O95398 whole entry, looked up): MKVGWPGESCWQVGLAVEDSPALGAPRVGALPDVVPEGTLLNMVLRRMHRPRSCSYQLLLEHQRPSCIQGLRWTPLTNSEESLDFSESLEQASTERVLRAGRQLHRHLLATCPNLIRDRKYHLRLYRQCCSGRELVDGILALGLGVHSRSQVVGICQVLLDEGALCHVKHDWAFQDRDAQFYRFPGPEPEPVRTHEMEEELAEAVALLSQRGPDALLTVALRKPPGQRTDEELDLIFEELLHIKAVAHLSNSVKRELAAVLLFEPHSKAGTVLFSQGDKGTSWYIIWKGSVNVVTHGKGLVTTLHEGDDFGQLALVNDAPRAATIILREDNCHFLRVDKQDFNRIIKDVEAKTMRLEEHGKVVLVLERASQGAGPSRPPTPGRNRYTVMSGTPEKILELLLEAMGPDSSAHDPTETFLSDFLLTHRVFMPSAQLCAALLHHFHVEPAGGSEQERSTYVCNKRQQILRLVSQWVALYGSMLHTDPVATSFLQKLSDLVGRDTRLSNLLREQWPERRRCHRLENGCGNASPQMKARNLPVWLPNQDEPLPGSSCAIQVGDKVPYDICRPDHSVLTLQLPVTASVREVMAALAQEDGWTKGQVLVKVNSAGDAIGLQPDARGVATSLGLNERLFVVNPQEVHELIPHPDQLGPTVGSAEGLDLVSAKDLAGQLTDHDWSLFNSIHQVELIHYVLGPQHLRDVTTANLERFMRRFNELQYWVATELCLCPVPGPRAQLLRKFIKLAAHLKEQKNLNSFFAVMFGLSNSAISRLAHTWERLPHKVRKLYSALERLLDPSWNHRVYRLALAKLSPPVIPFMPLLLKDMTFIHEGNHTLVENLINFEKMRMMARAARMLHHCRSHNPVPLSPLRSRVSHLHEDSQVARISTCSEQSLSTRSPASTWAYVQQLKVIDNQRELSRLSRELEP
The depositor's hits bear a star; ? = inconclusive; & = joins results of further samples; [ ] = dose if it differs, or a comment. % is scaled to controls: 0 for no effect and ±100 for the full control effect; potency is read from the fitted curve at half-maximal effect. Some of the compounds tested, so the mix of outcomes need not match the whole.

EPAC1 agonist	SMILES
35µM*	Cc1cc2nc3c(=O)[nH]c(=O)nc-3n(CC(O)C(O)C(O)CO)c2cc1C (configuration not stated)
-6%	CSc1ccccc1C(=O)NCC1Cc2cc(F)cc(-c3cnccn3)c2O1 (configuration not stated)
?	C[N+](C)(CCOc1ccccc1)Cc1cccs1
-60%[inhibitor]	Cc1cccc(CNc2ncnc3ccc(-c4cccc(C#N)c4)cc23)c1
12%	O=C(c1cc(C(F)(F)F)cc(C(F)(F)F)c1)N1CCC2(CC1)CN(c1ccncc1)C2
-13%	CCCCCCCCCCC(C)(C)C(=O)Nc1c(OC)cc(OC)cc1OC
-9%	Cc1ccn(CCC(=O)N2CCOc3ccc(C(O)C4CCCCC4)cc3C2)n1 (configuration not stated)
?	CCCCOc1cc(C(=O)NCCN(CC)CC)c2ccccc2n1
-14%	CC(=O)NCCNc1ncnc2ccc(-c3ccoc3)cc12
-27%	Cn1c(=O)c(-c2ccccc2)nc2cnc(Nc3ccccc3)nc21
?	CN1C(=O)CC[C@H]1c1cccnc1
?	Cn1cccc1C(=O)N1CCC[C@@]2(CCN(C(c3ccccc3)c3ccccc3)C2)C1
-2%	O=C(CCc1ccc(O)cc1)c1c(O)cc(O)cc1O[C@@H]1O[C@H](CO)[C@@H](O)[C@H](O)[C@H]1O
-10%	COC(=O)[C@H]1[C@@H]2C[C@H]3c4[nH]c5ccccc5c4CCN3C[C@@H]2CC[C@@H]1O
11%	Cc1ccc2oc(-c3ccccc3)cc(=O)c2c1
6%&-26%	O=C1c2ccccc2C(=O)c2c1ccc(O)c2O
21%	CC1(C)SC2C(NC(=O)C(N)c3ccccc3)C(=O)N2C1C(=O)O (configuration not stated)
11%	O=C(c1cccc(F)c1)N1CCC[C@@]2(CCN(Cc3ccncc3)C2)C1
-9%	NC(N)=Nc1ccc(Cl)cc1
-4%	COc1ccc(CCNc2ncnc3sc(C(=O)N(C)C)c(C)c23)cc1OC
-39%[inhibitor]	O=S(=O)(c1ccccc1)N1CCC2(CCCN(Cc3ccncc3)C2)CC1
-15%	CCn1cc(CN2CCOc3ccc(C(O)C4CCCCC4)cc3C2)c(C)n1 (configuration not stated)
-1%	COc1cc2nc(N3CCCN(C)CC3)nc(NC3CCN(Cc4ccccc4)CC3)c2cc1OC
12%	CS(=O)(=O)Nc1cccc(-c2ccc3ncnc(N4CCNCC4)c3c2)c1
-10%	Cc1cnc(CNc2ncnc3ccc(-c4ccccc4C)cc23)cn1
-13%	COCCn1c(=O)c(-c2ccc(F)cc2)nc2cnc(N3CCOCC3)nc21
6%	CS(=O)(=O)Nc1cccc(-c2nc(NCc3ccccc3)c3ccccc3n2)c1
1%	CC(=O)C1=C(O)C=C2Oc3c(C(C)=O)c(O)c(C)c(O)c3C2(C)C1=O (configuration not stated)
-3%	COc1ccc2c(c1)C(=O)N(CCc1ccc(S(=O)(=O)NC(=O)NC3CCCCC3)cc1)C(=O)C2(C)C
?	NC(=O)N1c2ccccc2C=Cc2ccccc21

(next part)
EPAC1 agonist	SMILES
-7%	COc1cccc(Cn2c(=O)c(C)nc3cnc(Oc4cccc(Cl)c4)nc32)c1
20%	COc1ccc(SC[C@H](C)CN2CC[C@H](O)CCC2=O)cc1
5%	CC(=O)OCC1=C(C(=O)O)N2C(=O)[C@@H](NC(=O)CSc3ccncc3)[C@H]2SC1
8%	Nc1ccn(C2CO[C@H](CO)O2)c(=O)n1 (some centres not stated)
-47%[inhibitor]	COc1ccc(C(=O)N2CCC3(CCCN(C(=O)Nc4cccc(C#N)c4)C3)CC2)cc1
0%	COc1ccc(N2C(=O)[C@@H]3C[C@H]2CN3Cc2cccn2-c2ccc(Cl)cn2)c(C)c1
29%	Cc1noc(C)c1-c1cc(N2CCNCC2)ncn1
-110%[inhibitor]	CCN(CC)c1ccccc1/C=C/[n+]1ccc(CCCCI)c2ccccc21
-20%	Cc1ccc(CN2[C@@H](Cc3ccccc3)C(=O)CS2(=O)=O)cc1
25%	O=C1CCN(Cc2ccc([N+](=O)[O-])cc2)CCN1[C@H](CO)Cc1ccccc1
3%	COc1ccc(CN2CCCC(c3nc(-c4ccncc4)ncc3-c3ccccc3)C2)cc1OC (configuration not stated)
-111%[inhibitor]	CCCCCCC(=O)O[C@H]1CC[C@H]2[C@@H]3CCc4cc(O)ccc4[C@H]3CC[C@]12C
-43%[inhibitor]	CCCCCCCC/C=C\CCCCCCCC(=O)OC[C@H](CO)OC(C)=O
22%	Oc1ccc2ccccc2c1SSc1c(O)ccc2ccccc12
24%	CC(=O)c1ccc(F)c(-c2cc(C)cc3c2OC(CNC(=O)Cc2c[nH]c4ccccc24)C3)c1 (configuration not stated)
-6%	COCCn1c(=O)c(C)nc2cnc(Nc3cccc(OC)c3)nc21
-5%	CC(CCCCC(=O)Nc1ccc(C(F)(F)F)cc1)NCCc1cnc[nH]1 (configuration not stated)
-55%[inhibitor]	CC(C)CN1CCC2(CC1)CCN(C(=O)c1ccco1)CC2
?	O=C(c1ccncc1)N1CCC2(CC1)CN(c1cccc(-c3ccccc3)c1)C2
100µM*	CCCCCCCCCC[n+]1ccc(/C=C/c2c[nH]c3ccccc23)cc1
-21%&-12%	CCCCCCCCCCCCCCCC(=O)OC(CC(=O)O)C[N+](C)(C)C (configuration not stated)
6%	O=C(O)C(O)[C@@](O)(Cc1ccc(O)cc1)C(=O)O (some centres not stated)
-19%	CCOc1ccc(S(=O)(=O)O)c2cccnc12
6%	NCCCC[C@H](NC(=O)[C@@H]1CCCN1C(=O)[C@@H]1CSSC[C@H](N)C(=O)N[C@@H](Cc2ccccc2)C(=O)N[C@@H](Cc2ccccc2)C(=O)N[C@@H](CCC(N)=O)C(=O)N[C@@H](CC(N)=O)C(=O)N1)C(=O)NCC(N)=O
-16%	N[C@@H](Cc1ccccc1)C(=O)O
-6%&-2%&-12%	CC[N+](C)(C)c1cccc(O)c1
-19%	Cn1cccc1C(=O)N1CCC2(CC1)CN(C(=O)Nc1ccccc1)C2
5%	CC(=O)C1CCC2C3CC=C4CC(O)CC[C@@]4(C)C3CC[C@]12C (some centres not stated)
-1%	CC(=O)Nc1ccc(SC[C@H](C)CN2CC[C@H](C(C)(C)C)CCC2=O)cc1
-95%[inhibitor]	CCCCC[C@H]1CN(C2CCCCC2)C(=O)[C@@H]1CC(=O)NCc1ccccc1

The listing continues:
EPAC1 agonist	SMILES
10%	C=CCN1[C@@H](Cc2ccccc2)COCCS1(=O)=O
-1%&11%	O=c1[nH]c2ccccc2c2ccccc12
?	O=C(N[C@H]1CCC(=O)N(CCSc2ccc(Br)cc2)CC1)OCc1ccccc1
-14%	OCc1cc([C@@H](O)CNCCCCCCOCCCCc2ccccc2)ccc1O
-8%	CCCCC(=O)OCC(=O)[C@]1(O)Cc2c(O)c3c(c(O)c2[C@@H](O[C@H]2C[C@H](NC(=O)C(F)(F)F)[C@H](O)[C@H](C)O2)C1)C(=O)c1c(OC)cccc1C3=O
-14%	CNCC[C@H](Oc1ccccc1OC)c1ccccc1
-25%	CO[C@@H]1[C@H](OC(=O)/C=C/C=C/C=C/C=C/C(=O)O)CC[C@]2(CO2)[C@H]1[C@@]1(C)O[C@@H]1CC=C(C)C
?	COC(=O)C1=C(C)NC(C)=C(C(=O)OCCN(C)Cc2ccccc2)C1c1cccc([N+](=O)[O-])c1 (configuration not stated)
7%	CN(C)c1ccc(-c2cc(NCc3cccnc3)ncn2)cc1
-15%	CCCCCCCCCCCCC/C=C/[C@@H](O)[C@H](CO)NC(=O)CCCCCCCCCCCCCCC
-32%[inhibitor]	COC(=O)c1c(C)cc(OC)cc1O
-23%	O=C(O)CC/C=C\CC[C@@H]1[C@@H](N2CCCCC2)[C@@H](O)C[C@@H]1OCc1ccc(-c2ccccc2)cc1
6%	COc1ccc(/C=C2\NC(=O)[C@@H]3Cc4ccccc4CN3C2=O)cc1
-24%	O=c1c(CCc2ccccc2)nc2cnc(N3CCOCC3)nc2n1-c1ccccc1
13%	N#Cc1ccccc1-c1ccc2ncnc(N3CCNCC3)c2c1
1%	N#C/C(=C\c1ccc(O)c(O)c1)C(=O)NCCCNC(=O)/C(C#N)=C/c1ccc(O)c(O)c1
?	CCCCN1CC[C@H]2C=CC[C@@H](C(=O)Nc3nccs3)[C@H]2C1=O
8%	O=C(Oc1ccccc1)N1CCC2(CCCN(c3ccccn3)C2)CC1
-12%	CO[C@H]1C=CO[C@@]2(C)Oc3c(C)c(O)c4c(O)c(cc(O)c4c3C2=O)NC(=O)/C(C)=C\C=C/[C@H](C)[C@H](O)[C@@H](C)[C@@H](O)[C@@H](C)[C@H](OC(C)=O)[C@@H]1C
-7%	Cc1ncc2c(c1CNC(=O)c1ccc3c(c1)OCO3)CCN(C(=O)c1cnsn1)C2
-8%	COc1ccc2ccccc2c1CN1CCc2nnc(CNC(=O)c3cccc(F)c3)n2CC1
-8%	CCNCCCNCCCCNCCCNCC
100µM*	c1ccc(Nc2nc(-c3ccc4c(c3)OCO4)nc3ccccc23)cc1
-41%[inhibitor]	Cn1c(=O)c(-c2cc(F)cc(F)c2)nc2cnc(Oc3cccc(Cl)c3)nc21
-14%	Cc1ncc2c(c1CNC(=O)c1cncs1)CCN(C(=O)c1ccc(C(C)(C)C)cc1)C2
10%	CCN(CC)CCOC(=O)c1ccc(N)cc1Cl
18%	COc1ccc(OC)c(/C=C/c2cc3ccccc3cn2)c1
-8%	C(=C1C=c2ccccc2=C1)c1ccc(N=Nc2ccc(C=C3C=c4ccccc4=C3)cc2)cc1
-30%	CN1CCN(c2cc(-c3ccoc3)ncn2)CC1
4%	N[C@@]1(C(=O)O)CN[C@H](C(=O)O)C1

Next section; it opens with the 5 that closed the last part.
EPAC1 agonist	SMILES
10%	CCN(CC)CCOC(=O)c1ccc(N)cc1Cl
18%	COc1ccc(OC)c(/C=C/c2cc3ccccc3cn2)c1
-8%	C(=C1C=c2ccccc2=C1)c1ccc(N=Nc2ccc(C=C3C=c4ccccc4=C3)cc2)cc1
-30%	CN1CCN(c2cc(-c3ccoc3)ncn2)CC1
4%	N[C@@]1(C(=O)O)CN[C@H](C(=O)O)C1
?	N#CCCn1c(=O)c(CCc2ccccc2)nc2cnc(Oc3ccccc3)nc21
-64%[inhibitor]	COc1ccc(NC(=O)N2CC3(CCN(C(=O)c4cc(C(F)(F)F)cc(C(F)(F)F)c4)CC3)C2)cc1
-7%	Oc1ccc(C2CNCc3sccc32)cc1O (configuration not stated)
-11%&26%	CCN(CC)CCSC(=O)C(c1ccccc1)c1ccccc1
-48%[inhibitor]	Cn1c(=O)c(-c2ccc(Cl)cc2)nc2cnc(Oc3ccccc3)nc21
10%	Cc1cnc2ccc3ccccc3c2c1C
-18%	COc1cccc(-c2cc(NCc3ccccc3)ncn2)c1
-37%[inhibitor]	O=C(Oc1ccccc1)N1CCC2(CC1)CCN(c1ccccc1)CC2
29%	CN(C)c1ncc2nc(-c3ccccc3)c(=O)n(C3CC3)c2n1
-11%	Cc1ncc([N+](=O)[O-])n1CCO
-72%[inhibitor]	C=C1CCC(O)C/C1=C\C=C1/CCCC2(C)C1CCC2C(C)/C=C/C(C)C(C)C (configuration not stated)
17%	COc1ccc(-c2ccc(C(=O)NCC3Cc4cccc(-c5nc(C)cnc5C)c4O3)o2)cc1 (configuration not stated)
5%	Cc1cccc(CNc2ncncc2-c2cccnc2)c1
6%	Cc1cc(=O)c(C(=O)NCCc2ccccn2)c2n1-c1ccccc1SC(c1cccs1)C2 (configuration not stated)
-48%[inhibitor]	C#CCCCCCCCCCCCC(=O)CC(O)COC(C)=O (configuration not stated)
?	CSCCC(N)C(=O)NC(CC(C)C)C(=O)NC(Cc1ccccc1)C(=O)O (configuration not stated)
18%	COCCNc1ccnc(-c2ccccc2C(F)(F)F)n1
-7%	O=C(O[C@H]1CN2CCC1CC2)N1CCc2ccccc2[C@@H]1c1ccccc1
6%	CC(=O)N(Cc1ccc2c(c1)OCO2)Cc1cc2ccc(C)cc2nc1-c1cccc(C)c1
-1%&-13%	NC(=S)NCCC[C@H](N)C(=O)O
5%&-7%&-18%&3%	N[C@@H](COP(=O)(O)O)C(=O)O
1%&-18%	C#CCn1c(=O)c2c(ncn2C)n(C)c1=O
-28%	O=C(C[n+]1cccc2cccc(O)c21)c1ccc(Cl)cc1
-8%&12%	Cc1cc2cc3c(C)cc(=O)oc3c(C)c2o1
-1%	Oc1ccc(Cn2cc[nH]c2=S)cc1
4%	OC[C@H]1NC[C@@H](O)[C@@H](O)[C@H]1O
2%	CC(=O)c1ccc2oc3ccccc3c(=O)c2c1
-20%	N#CCCn1c(=O)c(-c2ccc(F)cc2)nc2cnc(N3CCNCC3)nc21
-9%	O=C(c1csnn1)N1CCC2(CCN(Cc3cc(C(F)(F)F)cc(C(F)(F)F)c3)CC2)CC1
-37%[inhibitor]	CN(C)c1ccc(-c2ccc3ncnc(N(C)C)c3c2)cc1
-23%	C/C=C1\[C@H]2C=C(C)C[C@]1(N)c1ccc(=O)[nH]c1C2
-8%&-13%	O=C(O)Cc1ccc(O)c(O)c1
-3%	CN(CCO)C(=O)c1cn(C2CCCN(Cc3cccc4ccccc34)C2)nn1 (configuration not stated)

Some of the entries so far, as labelled records.
Cc1cnc2ccc3ccccc3c2c1C
  EPAC1 agonist: 10%
CCN(CC)CCSC(=O)C(c1ccccc1)c1ccccc1
  EPAC1 agonist: -11%&26%
COc1ccc(NC(=O)N2CC3(CCN(C(=O)c4cc(C(F)(F)F)cc(C(F)(F)F)c4)CC3)C2)cc1
  EPAC1 agonist: -64%[inhibitor]
NC(=S)NCCC[C@H](N)C(=O)O
  EPAC1 agonist: -1%&-13%
